Vaccinia Venus: qHTS for Stage-Specific Inhibitors of Vaccinia Orthopoxvirus: Venus Reporter Primary qHTS. Potency, µM (doses to about 36.5 µM), without a hit: top-dose activity change, negative = inhibition, most hits filed as inhibitors. hit rate 0.46% among 330,000. Vaccinia virus Venus reporter expression, fluorescence; active means well fitted inhibition curve with a large enough effect; inconclusive means small, poorly fitted or top-dose-only effect; inactive means no such curve, though single readings can be large or run the other way; tested in A549 cells; note: nearly all actives have a fitted effect of over 30% in size; inactives centre near -10
VACV mCherry inh: qHTS for Stage-Specific Inhibitors of Vaccinia Orthopoxvirus: mCherry Reporter Primary qHTS; hit rate 0.63% among 310,000; Potency, µM (series often up to 36.5 µM), without a hit: at the highest dose activity change, negative = inhibition, actives largely listed as inhibitors; Vaccinia virus mCherry reporter infection, fluorescence; about a quarter of the inactives have no number; AID 720579, 2013; active = well fitted inhibition curve with a large enough effect; inconclusive = small, poorly fitted or top-dose-only effect; inactive = no such curve, though single readings can be large or run the other way; tested in A549 cells; note: nearly all actives have a fitted effect of over 35% in size; inactives centre near -10
* marks the source's active call; other numbers are inactive results; i = inactive; u = inconclusive; x = not tested or not shown; [ ] = remark or other dose. % is set by controls: 0 for no effect and ±100 for the full control effect; potency is the fitted concentration of half-maximal effect.

Preview (3 entries):
Order of values – Vaccinia Venus, VACV mCherry inh
O=C(/C=C/Nc1ccc(F)cc1)c1cccs1
  -9%, i
CC(C)(Oc1ccc(CCNC(=O)c2ccc(-c3ccccc3)o2)cc1)C(=O)O
  -9%, i
CCOC(=O)N(Cc1ccccc1)C1CC1
  -8%, -14%

The listing (from the top)
Order of values – Vaccinia Venus, VACV mCherry inh
O=C(/C=C/Nc1ccc(F)cc1)c1cccs1
  -9%, i
CC(C)(Oc1ccc(CCNC(=O)c2ccc(-c3ccccc3)o2)cc1)C(=O)O
  -9%, i
CCOC(=O)N(Cc1ccccc1)C1CC1
  -8%, -14%
O=C(c1cccc(F)c1)N1CCN(Cc2c[nH]c3ccccc23)CC1
  9%, x
Cc1ccc(S(=O)(=O)NCC(=O)NC2CC2)cc1
  -2%, -14%
CCC(=O)N1c2ccccc2CC1C(=O)NCc1ccc(N(C)C)cc1 (centres undefined)
  -3%, -3%
Cc1oc(-c2cc(F)ccc2F)nc1CN(C)Cc1ccc2nccnc2c1
  -9%, -23%
Nc1nc(-c2ccccc2)nc2sc3c(c12)CCCC3
  u, -17%
COc1cccc(-c2noc(COc3cccc(C)c3C)n2)c1
  -14%, -6%
CCC(Br)C(=O)Nc1ccc(OC)cc1 (centres undefined)
  -14%, i
C#CCOCCOCCOCCNc1nc(N2CCOCC2)nc(N2CCN(C(=O)[C@H](CCCCN)n3cc([C@@H](N)CC(C)C)nn3)CC2)n1
  -2%, i
CC12CCC(C(=O)NCc3ccccc3)(OC1=O)C2(C)C (centres undefined)
  -7%, -9%
CCOCCCNC(=O)C(c1ccc(Cl)cc1)N(Cc1ccc2c(c1)OCO2)C(=O)c1ccccc1O (centres undefined)
  -12%, -10%
CCOc1ccc2nc(N(CCN(CC)CC)C(=O)c3cccc([N+](=O)[O-])c3)sc2c1
  -16%, u
COc1ccc(C(=O)COC(=O)c2ccc(OC)c(OC)c2)cc1OC
  -21%, -25%

Other compounds
Order of values – Vaccinia Venus, VACV mCherry inh
Cc1ccc(-c2nnc(N3CCC(C)CC3)c3ccccc23)cc1
  u, u
CCOC(=O)[C@]12CCC=C1N(Cc1cccc3ccccc13)C(=O)[C@H](CC(=O)NCC1CCCCC1)C2
  -21%, -24%
CCN(CC)S(=O)(=O)c1ccc(S(=O)(=O)Nc2c(C)nn(C)c2C)cc1
  -16%, -24%
Cn1cc([N+](=O)[O-])c(C(=O)N/N=C/c2ccncc2)n1
  -14%, -13%
O=C(O)CCc1nnc(SCC(=O)Nc2ccc(Br)cc2)[nH]c1=O
  -4%, i
CS(=O)(=O)c1ccc([C@@H](O)[C@@H](CF)NC(=O)C(Cl)Cl)cc1
  -8%, i
COc1cccc(CNC(=O)c2cc3c(s2)-c2ccccc2OC3)c1
  -7%, -4%
Cc1nc(-c2ccc(Cl)cc2)sc1C1(C)CC(c2cccc(F)c2)=NO1 (centres undefined)
  9%, -5%
O=C(O)Cc1ccc(C(=O)c2ccc(Cl)cc2Cl)s1
  -13%, i
Cc1ccc(C)c(NS(=O)(=O)c2ccc3[nH]c(=O)oc3c2)c1
  -8%, -20%
Cc1ccccc1OCC(=O)Nc1cccc2nsnc12
  -8%, x
CC(=O)c1cc(-c2ccccc2)n(CC(=O)Nc2cc(C)cc(C)c2)c1C
  -13%, -7%
COCCn1c(SCc2ccc(OC)c(F)c2)nnc1-c1ccncc1
  -16%, -11%
O=C(Nc1ccccc1)N1CCC(=S)Nc2ccccc21
  -1%, -5%
O=C(NNC(=S)Nc1ccccc1)c1ccccc1[N+](=O)[O-]
  -4%, -5%

Further entries:
Order of values – Vaccinia Venus, VACV mCherry inh
Cc1ccc(NC(=O)COC(=O)CN2C(=O)NC3(CCCC3)C2=O)cc1F
  -25%, -20%
COc1ccc(CCNC(=O)C2CCCN2C(=O)NC2CCCCC2)cc1OC (centres undefined)
  -7%, -13%
COC(=O)C(=O)/C=C(\O)c1c(C)cc(C)cc1C
  -10%, i
Cc1ccc(-c2nnc(Nc3ccc4c(c3)nc(C)n4C)c3ccccc23)cc1
  u, u
Brc1ccc(N=NNc2ccccc2)cc1
  -11%, u
COCCCNS(=O)(=O)c1ccc2c(c1)CCN2C(C)=O
  -2%, 0%
Cc1c(/C(O)=C2/C(=O)C(=O)N(CCN3CCOCC3)C2c2cccnc2)cnn1-c1ccccc1 (centres undefined)
  -17%, x
Cc1csc(Sc2ccc([N+](=O)[O-])cc2C(=O)OCC(=O)NC(=O)NC(C)(C)C)n1
  -24%, x
COC(=O)c1cn(-c2cccc(C)n2)cn1
  -7%, i
O=C(NC(=S)NCCC1=CCCCC1)c1ccccc1Br
  -4%, -8%
CC(C)NC(=O)C1(C)CCN1C(=O)c1ccccc1 (centres undefined)
  -4%, 8%
O=C(NCCC1CCCCN1S(=O)(=O)c1cccs1)C(=O)Nc1cccc(F)c1 (centres undefined)
  -12%, -20%
CCOC(=O)C1=C2NC(=O)c3ccccc3N2C(=O)C1
  17%, 0%
CCOc1ccc(NC(=O)Cn2nc(Cc3cccnc3)c3ccccc3c2=O)cc1
  -6%, -12%
Cn1c(N)c(C(=O)c2cc(-c3ccncc3)nc3ccccc23)c(=O)n(C)c1=O
  -7%, i

(continued)
Order of values – Vaccinia Venus, VACV mCherry inh
O=c1[nH]c(=S)n(Cc2ccc(F)cc2)c(O)c1/C=N/N1CCCCCC1
  -15%, -1%
N#Cc1c(NC(=O)CSc2nc(N)cc(=O)[nH]2)sc2c1CCCC2
  -28%, -15%
O=C(c1ccco1)n1nc(-c2cccnc2)nc1NCc1ccco1
  -3%, -4%
COc1ccc(-c2cc3nc(NCc4ccc(N(C)C)cc4)n(C)c(=O)c3s2)cc1OC
  u, i
COC(=O)[C@@H](NCc1ccc(B(O)O)cc1)C(C)C
  -1%, -13%
CCOc1ccccc1CNC(=O)CCc1c(C)nn(-c2ccc(N3CCOCC3)nn2)c1C
  -2%, -8%
C=CCN(CC=C)S(=O)(=O)c1ncn[nH]1
  -20%, x
O=C1NC[C@H](CCCCN2CCN(Cc3ccccc3)C(=O)C2=O)N(CCc2ccccc2)C1=O
  -2%, -10%
C/C(=N\NC(=O)c1c[nH]c2ccccc12)c1ccco1
  0%, -12%
Cc1ccc(C)c(S(=O)(=O)c2nnn3c2nc(Nc2ccc(F)c(Cl)c2)c2sccc23)c1
  u, u
C[C@@H]1CN([C@@H](C)CO)C(=O)CCCn2nncc2CO[C@@H]1CN(C)S(=O)(=O)c1ccc(Oc2ccccc2)nc1
  -11%, -18%
c1ccc(COc2cccc(-c3cc4nc(NCCc5ccncc5)ccn4n3)c2)cc1
  -9%, -16%
CSc1cccc(NC(=O)c2ccc(CN3CCc4ccccc4C3)cc2)c1
  u, -19%
CC(=O)Nc1ccc(NC(=O)C(C)OC(=O)C2CC3C=CC2C3)cc1 (centres undefined)
  -13%, -15%
CCOC(=O)c1c(C)[nH]c(C)c1C(=O)CSc1nc2ccccc2c(=O)n1-c1ccc(CC)cc1
  u, u

Carrying on.
Order of values – Vaccinia Venus, VACV mCherry inh
Cc1cc(=O)oc2cc(OCCc3ccccc3)ccc12
  2%, u
COc1ccccc1/C=C1\SC(=S)N(CCC(=O)Nc2nnc(C)s2)C1=O
  -15%, -16%
COc1cc(C(=O)Nc2ccc3oc(-c4ccc(C)c(Br)c4)nc3c2)cc(OC)c1OC
  -14%, -7%
FC(F)(F)c1cccc(Cc2noc(CN3C[C@@H]4CCC[C@H]3C4)n2)c1
  -21%, -10%
c1ccc(CN(CCN2CCOCC2)Cc2ccccc2)cc1
  20%, -10%
Cc1cc(C)cc(NC(=O)C(NCC2CCCO2)c2ccccc2)c1 (centres undefined)
  -8%, i
Cc1nn(-c2ccccc2)c(C)c1/C=N/n1c(-c2ccccc2Br)n[nH]c1=S
  -16%, -7%
O=C(COC(=O)C1CCN(c2ccc(C(F)(F)F)cn2)CC1)c1ccc(F)cc1
  -11%, -8%
CC1CCCCC1NC(=O)C1CCN(S(=O)(=O)N2CCOCC2)CC1 (centres undefined)
  -10%, -13%
Nc1ccc2c(C(F)(F)F)cc(=O)oc2c1
  1%, -6%
CN(CC(=O)NCc1ccncc1)S(=O)(=O)c1ccc2ccccc2c1
  -4%, -28%
Nc1nc(Cl)cc(Oc2ccccc2F)n1
  -5%, i
CC(=O)Nc1cccc(-c2ccnc3c2CC(C)(C(=O)Nc2cccc(NS(C)(=O)=O)c2)O3)c1 (centres undefined)
  -14%, 12%
COc1ccc(NC(=O)C2C3C=CC4(O3)C2C(=O)N(CCCN2CCCCC2)C4C(=O)NC2CCCC(C)C2C)cc1 (centres undefined)
  -20%, u
COc1ccc(Br)cc1S(=O)(=O)Nc1ccc(Cl)cn1
  -1%, -14%

Continued; the last two above are carried over.
| smiles | Vaccinia Venus | VACV mCherry inh |
| --- | --- | --- |
| COc1ccc(NC(=O)C2C3C=CC4(O3)C2C(=O)N(CCCN2CCCCC2)C4C(=O)NC2CCCC(C)C2C)cc1 (centres undefined) | -20% | u |
| COc1ccc(Br)cc1S(=O)(=O)Nc1ccc(Cl)cn1 | -1% | -14% |
| CC1CCC(C(=O)NC(C(=O)OCC(=O)c2ccccc2)C(C)C)CC1 (centres undefined) | -12% | -14% |
| CCOC(=O)c1cnc2ccc(C)cc2c1OCc1cc(F)cc(F)c1 | -11% | i |
| COc1ccc(C2C(C(=O)Nc3ccc(C)cc3C)=C(C)Nc3nc4ccccc4n32)c(OC)c1 (centres undefined) | -4% | -16% |
| CCCOc1ccc(C2c3c(oc4ccc(F)cc4c3=O)C(=O)N2CCc2ccc(OC)cc2)cc1 (centres undefined) | -8% | -9% |
| COc1cc2c(cc1OC)CN(C(=O)c1cccc([N+](=O)[O-])c1)CC2 | -23% | -6% |
| O=C(COC(=O)COc1ccc(Nc2ccccc2)cc1)NCc1ccco1 | -15% | -12%[1.46 µM] |
| CCCCC[C@@H](C)N1C[C@@H](COCc2ccccc2)Oc2cc(N3CC[C@@H](N(C)C)C3)ccc2S1(=O)=O | -21% | -16% |
| COc1ccc(C(O)c2ncc(-c3cccc(C(F)(F)F)c3)[nH]2)cc1 (centres undefined) | u | u |
| CCOc1ccc(C2Oc3nc(SC)nnc3-c3ccccc3N2C(C)=O)cc1OC (centres undefined) | -11% | -3% |
| CCOc1ccc(NC(=O)C(=O)NCC(c2cccnc2)N2CCc3ccccc32)cc1 (centres undefined) | -30% | -28% |
| CC1=C(C(=O)Nc2ccc(C)cc2C)C(c2ccc(C(=O)O)cc2)n2nc(SCc3ccccc3)nc2N1 (centres undefined) | -2% | 0% |
| Cc1noc(C)c1-c1cc(NC2CC2)ncn1 | 6% | i |
| COc1ccccc1N(C)S(=O)(=O)c1ccc(C(=O)NC2CCCCCC2)cc1 | -18% | i |
| COc1cccc(NC(=O)c2oc3ccccc3c2NC(=O)c2ccc(OC(C)C)cc2)c1 | -9% | -10% |
| O=C(Cc1ccc(Br)cc1)NC1CCCc2ccccc21 (centres undefined) | -7% | -26% |
| C=CCOc1c2ccc(C(=O)NCCc3ccc(C)cc3)cc2nn1C | -6% | i |
| O=C(c1cc(Br)ccc1O)N(Cc1ccco1)Cc1cccs1 | -15% | -5% |
| O=C(c1ccccc1)N1CCN(C(=O)c2ccccc2)c2ccccc21 | -15% | -12% |
| CCOC(=O)N1CCN(C(=O)c2ccc(C)c(S(=O)(=O)Nc3cccc(C)c3C)c2)CC1 | -16% | -17% |
| Cc1cc(-c2ccccc2)n2nc(-c3ccccc3)cc2n1 | -12% | -15% |
| COC(=O)c1sc(SC)c(S(=O)(=O)C(C)C)c1N/N=C(\C#N)S(=O)(=O)c1ccccn1 | -10% | -15% |
| CC(C)Cc1nnc(NC(=O)CCNC(=O)c2ccco2)s1 | -6% | -2% |
| CCOc1ccc(N(CC(=O)N2CCOCC2)S(=O)(=O)c2ccc(F)cc2)cc1 | 1% | -9% |
| Cc1ccnc(NS(=O)(=O)c2ccc(NS(=O)(=O)c3ccccc3)cc2)n1 | 4% | -12% |
| Cn1c(N)c(C(=O)COC(=O)CNC(=O)c2ccccc2F)c(=O)n(C)c1=O | -14% | -15% |
| CCCCC(CCCC)=N/N=C/c1c(O)n(CC)c2cc(C3=NNC(=O)CC3)ccc12 | 3% | x |
| CN1CCN(C(=O)/C(=C\c2cccs2)NC(=O)c2ccco2)CC1 | 1% | -11% |
| O=C(C[C@H]1C[C@@H]2c3cc(NC(=O)C4CCC4)ccc3O[C@@H]2[C@H](CO)O1)NC1CCCCC1 | -6% | -11% |
| COc1ccc(OC)c2sc(NC(=O)c3ccc(Br)s3)nc12 | 11µM* | u |
| CCCOc1ccc(-c2nc(OC)c3ccccc3n2)cc1 | -3% | -11% |

(cont.)
| smiles | Vaccinia Venus | VACV mCherry inh |
| --- | --- | --- |
| O=C(Nc1cccnc1)c1ccco1 | -7% | -10% |
| CCOC(=O)C1CCCN(C(=O)c2ccc3c(c2)sc2nc(-c4ccc(CC)cc4)cn23)C1 (centres undefined) | -24% | -17% |
| C=CCNc1sc(C(=O)c2ccc(C)cc2)c(N)c1C#N | -14% | x |
| CCCN(CC1CC1)c1cc2c(c3c1ccn3C)C1CCC2O1 (centres undefined) | -6% | 3% |

Copied from the list.
COc1cc(C(=O)Nc2ccc3oc(-c4ccc(C)c(Br)c4)nc3c2)cc(OC)c1OC – VACV mCherry inh = -7%
COC(=O)[C@@H](NCc1ccc(B(O)O)cc1)C(C)C – VACV mCherry inh = -13%
O=C(c1cccc(F)c1)N1CCN(Cc2c[nH]c3ccccc23)CC1 – Vaccinia Venus = 9%
Cc1ccc(S(=O)(=O)NCC(=O)NC2CC2)cc1 – VACV mCherry inh = -14%
COc1cc2c(cc1OC)CN(C(=O)c1cccc([N+](=O)[O-])c1)CC2 – Vaccinia Venus = -23%
Cc1ccccc1OCC(=O)Nc1cccc2nsnc12 – Vaccinia Venus = -8%
